Bioassay records as filed in PubChem BioAssay.
TSHR ag: qHTS Assay for Agonists of the Thyroid Stimulating Hormone Receptor; Thyrotropin receptor (Homo sapiens), P16473; HEK293-CNG-TSHR cells (CNG channel as cAMP sensor), membrane potential dye, cAMP; 73,000 compounds, 0.48% hits; Potency, µM (top dose mostly 57.1 µM), without a hit: top-dose activation, actives largely listed as activators; active = well fitted activation curve of enough size with the parental cells flat; inconclusive = any curve in the parental cells; inactive = parental cells flat and receptor cells flat or falling; also: potency is read from the fitted curve at half-maximal effect; % of control where 0% means no effect; weak receptor curves with flat parental cells got no call and are not listed
Target sequence (P16473 whole entry, looked up): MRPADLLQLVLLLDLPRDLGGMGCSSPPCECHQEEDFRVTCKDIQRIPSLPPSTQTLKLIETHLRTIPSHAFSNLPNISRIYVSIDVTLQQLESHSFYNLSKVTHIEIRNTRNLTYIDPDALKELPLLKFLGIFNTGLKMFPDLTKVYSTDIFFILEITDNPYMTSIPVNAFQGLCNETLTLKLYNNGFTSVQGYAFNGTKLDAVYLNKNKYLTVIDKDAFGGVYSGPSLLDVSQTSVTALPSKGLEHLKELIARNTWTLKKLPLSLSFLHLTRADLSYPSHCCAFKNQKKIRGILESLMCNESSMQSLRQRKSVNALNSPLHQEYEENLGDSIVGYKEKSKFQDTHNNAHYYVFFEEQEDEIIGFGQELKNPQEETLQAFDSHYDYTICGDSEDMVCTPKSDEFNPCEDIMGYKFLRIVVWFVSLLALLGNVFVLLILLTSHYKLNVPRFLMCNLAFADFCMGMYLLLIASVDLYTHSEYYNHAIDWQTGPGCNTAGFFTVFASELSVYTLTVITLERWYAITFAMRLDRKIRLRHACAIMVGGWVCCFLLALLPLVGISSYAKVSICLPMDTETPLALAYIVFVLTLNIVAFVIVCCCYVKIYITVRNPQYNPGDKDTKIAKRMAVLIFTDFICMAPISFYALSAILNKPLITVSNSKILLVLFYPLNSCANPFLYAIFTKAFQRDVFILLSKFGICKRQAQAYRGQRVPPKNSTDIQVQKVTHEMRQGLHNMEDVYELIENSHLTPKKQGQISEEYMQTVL
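HEK 293 cells stably expressing TSHR and a modified CNG channel, with CNG-only parental cells as counterscreen, were preloaded 60 min at room temperature with membrane potential dye containing 100 uM RO 20-1724. Compound exposure was 30 min, and depolarization was read as fluorescence at 590 nm.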
A647 autofl: qHTS Assay for Spectroscopic Profiling in A647 Spectral Region. Compound fluorescence, A647 channel (570/671 nm), Tris buffer. max dye-equivalent concentration, M. 59,000 tested, under 10 active. AID 592, 2007; active means above 1 µM dye equivalent; inconclusive means 0.1 to 1 µM; inactive means 0.1 µM or less;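 also: values scaled relative to a standard on each plate; highest value over a series up to 38 µM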
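Compounds pinned into 100 mM Tris pH 8.0, 15 min at room temperature, then read with 570 nm excitation/671 nm emission filters. Fluorescence normalized to an on-plate six-point Alexa 647 standard curve, giving dye-equivalent concentration per compound concentration.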
Resorufin autofl: qHTS Assay for Spectroscopic Profiling in Resorufin Spectral Region; 59,000 compounds, 0.04% hits; AID 588, 2007; Compound fluorescence, resorufin region 547/598 nm, buffer; hits give high values; max dye-equivalent concentration, M; active = above 10 nM dye equivalent; inconclusive = 1 to 10 nM; inactive = 1 nM or less; a few of its hits are not listed in these tables; also: highest value over a series up to 38 µM
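Compounds in 100 mM Tris, pH 8.0, incubated 15 min at room temperature, then fluorescence read at 547 nm excitation/598 nm emission. Signal converted to dye-equivalent concentration via an on-plate six-point resorufin standard curve, per compound concentration.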
AID923: qHTS Assay for Allosteric/Competitive Inhibitors of Caspase-1: Spectroscopic Profiling in AFC Spectral Region; compound fluorescence, AFC spectral region (405/520 nm); almost no hit is shown here; Potency, µM (series often up to 57.5 µM), for inactives: at the highest dose fluorescence increase, most hits filed as activators; 75,000 compounds, 1.1% hits; active = well fitted activation curve with a large enough effect; inconclusive = small, poorly fitted or top-dose-only effect;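 also: potency is read from the fitted curve at half-maximal effect; 0% is about no effect; scaled to a free AFC standard on each plate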
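Titrations up to 57 uM read every 20 sec for 3 min (405/520 nm) with 50 nM caspase 1 and 5 uM Ac-WEHD-AFC, pH 7.5 HEPES buffer. Fluorescence-vs-time intercept gave baseline, scaled against on-plate AFC standard.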
A488 fluor: qHTS Assay for Spectroscopic Profiling in A488 Spectral Region; compound autofluorescence, A488 spectral region, dye equivalency; hits give high values; max dye equivalency, M; 59,000 compounds, 0.1% hits; active = above 10 nM dye equivalent; inconclusive = 1 to 10 nM; inactive = 1 nM or less; about half of its hits are not listed in these tables;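 also: highest value over a series up to 38 µM; compound alone in buffer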
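Autofluorescence read at ex 480/em 540 nm after 15 min RT in 100 mM Tris pH 8.0; compound signal normalized to A488 standard series on each plate, reported as dye-equivalent concentration at each test concentration.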
* = called active by the depositor; i = inactive; ? = inconclusive; / = not tested or not shown; [ ] = dose if it differs, or a comment. A portion of the library. The share of hits here may be higher or lower than overall.

mol,TSHR ag,A647 autofl,Resorufin autofl,AID923,A488 fluor
O=S(=O)(c1ccc(S(=O)(=O)N(Cc2cccs2)CC2CCCO2)cc1)N1CCCCC1 (stereo not drawn),17%,1.1e-08,i,-0.3%,i
O=C(O)Cn1nc2ccccc2n1,-2%,2.2e-08,i,-0.7%,i
COC(=O)C1=C(C)NC(C)=C(C(=O)OC)C1c1ccccn1,3%,1e-09,i,8.8%,i
CCCOc1ccc2c3c(c(=O)oc2c1OCCC)CCC3,?,/,/,0.2%,/
O=C1CC(Cc2ccccc2)C(=O)N1Cc1ccco1 (stereo not drawn),-2%,/,/,2.8%,/
COc1ccc(C(C(=O)NC2CCCCC2)N2CCC3(CC2)OCCO3)cc1 (stereo not drawn),12%,1e-09,i,0.7%,i
COC(=O)c1sc(S(=O)(=O)N2CCC(C)CC2)c(C(=O)OC)c1C,?,1e-09,i,1.0%,i
CCOC(=O)NC(Nc1nnc(C)s1)(C(=O)OCC)C(F)(F)F (stereo not drawn),/,4.2e-09,i,0.0%,i
COc1cc(C(=O)NCCC2=CCCCC2)cc(OC)c1OC,9%[11.4 µM],/,/,3.0%,/
Cc1ccc(-c2nnc3n2N=C(c2ccccc2Br)CS3)cc1,?,3.4e-08,i,0.9%,i
CCn1c(SCC(=O)Nc2nc(C)cs2)nnc1-c1cccnc1,3%,2.7e-08,i,-0.9%,i
Cc1ccccc1Cn1c(CN2CCN(C(=O)c3ccco3)CC2)nc2c1c(=O)n(C)c(=O)n2C,12%,/,/,-1.0%,/
C=CCc1cc(C)ccc1OCC(O)CN1CCN(c2ccccc2)CC1 (stereo not drawn),-2%,1.3e-08,i,4.0%,i
CCCSc1nsc(SCCC)c1C(N)=O,-1%,1.4e-08,i,-3.5%,i
CCc1nc2ccccc2n1CCC(C)C,?,1e-09,i,-2.5%,i
N#CCCSc1ccccc1NC(=O)c1ccc(S(=O)(=O)N2CCCC2)cc1,10%[11.4 µM],1.9e-08,i,-1.0%,i
CCOC(=O)N1CCN(C(=O)CNC(=O)Cc2ccc(Cl)cc2)CC1,3%,1e-09,i,0.0%,i
Cn1cnnc1-c1cccc(NS(=O)(=O)c2ccc(N3CCCC3=O)cc2)c1,/,6.2e-09,i,0.7%,i
COc1cccc(C2CC(c3ccccc3Cl)n3nnnc3N2)c1 (stereo not drawn),7%,1e-09,i,-1.1%,i
Cn1c(NC(=O)c2cccnc2)nc2ccccc21,4%,1e-09,i,-0.6%,i
CC(C)c1nnc(NC(=O)c2ccc(N3C(=O)CCC3=O)cc2)s1,5%,/,/,0.4%,/
COc1ccc(C2(C(=O)N3CCOCC3)CCOCC2)cc1OC,0%,1.9e-08,i,0.1%,i
CCOC(=O)c1cccc(NC(=O)C2CCCN(S(=O)(=O)c3c(C)n[nH]c3C)C2)c1 (stereo not drawn),-2%,8.6e-09,i,0.6%,i
CC1=C(/C=C/C(C)=C/C=C/C(C)=C\C=O)C(C)(C)CCC1,?,/,/,-1.7%,/
CN(CCOc1ccc(C[C@H](Nc2ccccc2C(=O)c2ccccc2)C(=O)O)cc1)c1ccccn1,?,4.6e-08,i,-0.9%,i
CNC(=O)CN1C(=O)C2C3C=CC(C3)C2C1=O (stereo not drawn),0%,1.2e-08,i,-0.5%,i
CCOP(=O)(c1ccccc1)C1(C#N)CCCC1 (stereo not drawn),/,1e-09,i,/,i
COC(=O)NCc1ccc(S(=O)(=O)N2CCOCC2)cc1,-3%,8.4e-09,i,-1.3%,i
CCOCCOC(=O)CCSc1n[nH]c(=O)[nH]c1=O,3%,1.5e-08,i,2.1%,i
COC(=O)COc1ccc(S(=O)(=O)NC2CCCCCC2)cc1,18%,1e-09,i,-0.3%,i
O=Cc1c(Cl)cccc1Cl,4%,/,/,-0.9%,/
CCOC(=O)C1C2C=CC3(CN(Cc4cccs4)C(=O)C13)O2 (stereo not drawn),-1%,1e-09,i,0.1%,i
CSCC[C@H](NC(=O)Nc1cccc(C(F)(F)F)c1)C(=O)O,15%,2.7e-08,i,0.5%,i
COc1ccc(C(=O)NCc2ccccc2OC)cc1,-13%,8.3e-09,i,-2.5%,i
Cc1ccc(-c2cc(C(=O)NC3=NCCS3)c3cc(Br)ccc3n2)o1,-6%,6.6e-09,i,2.6%,i
COc1ccc(-n2nnc3c(=O)n(CC(=O)OCc4ccccc4)cnc32)cc1,4%[11.4 µM],/,/,1.5%,/
Cc1cc(C)nc(/N=C/c2c(O)n(C)c(=O)n(C)c2=O)n1,0%,2.2e-08,i,-1.1%,i
Cc1csc(NC(=O)Nc2ccc(Cl)cc2)n1,-2%,1e-09,i,-0.5%,i
O=C1CCC(=O)N1CNc1cccnc1,-11%,/,/,0.0%,/
Cn1c(SCC(=O)c2ccc3c(c2)OCO3)nnc1C1COc2ccccc2O1 (stereo not drawn),9%,1.5e-09,i,3.6%,i
CCc1ccc(N2CC(C(=O)Nc3nccs3)CC2=O)cc1 (stereo not drawn),5%,4.8e-09,i,-0.5%,i
O=C(CCSc1nc(-c2ccc3c(c2)OCO3)cc(C(F)(F)F)n1)NCc1ccco1,?,/,/,1.6%,/
Cc1nn(-c2ccccc2)c2sc(C(=O)N(CC(=O)NC3CCCC3)Cc3ccco3)cc12,?,4.7e-09,i,0.1%,i
CCN1C(=O)C(CC(=O)NC2CCCCC2)N(CC)C1=O (stereo not drawn),4%,1e-09,i,-2.6%,i
COc1ccc(NC(=O)C2c3cc(OC)c(OC)cc3C(=O)N(C)C2c2cccnc2)cc1OC (stereo not drawn),-2%,2.7e-08,i,0.9%,i
COc1ccc(OC)c(-c2nnc(SCC(=O)N3CCOCC3)o2)c1,-6%,2.6e-08,i,-0.6%,i
CCOc1ccc(C(=O)NCC2CCCO2)cc1 (stereo not drawn),2%,2.5e-08,i,0.0%,i
O=C(CSc1nc(O)c(C2CCCCC2)c(=O)[nH]1)NCC1CCCO1 (stereo not drawn),?,1.5e-08,i,0.0%,i
Cc1nnc(NC(=O)CSc2nnc(CCc3nc4ccccc4[nH]3)n2C)s1,2%,1e-09,i,1.2%,i
CCNC(=O)CC1C(=O)N(c2ccc(OC)cc2)C(=O)N1Cc1ccc(OC)cc1 (stereo not drawn),/,2.2e-08,i,0.8%,i

(continued)
mol,TSHR ag,A647 autofl,Resorufin autofl,AID923,A488 fluor
Cc1cc(Nc2nc3c(c(=O)n(C)c(=O)n3C)n2C)n(-c2ccc(Cl)cc2)n1,-1%,2.8e-08,i,-1.3%,i
c1ccc(N2CCN(c3nc4ccccc4n4nnnc34)CC2)cc1,?,3.7e-08,i,7.4%,i
Cc1ccc(NC(=O)C2C3C=CC4(CN(Cc5cccnc5)C(=O)C24)O3)cc1 (stereo not drawn),3%,/,/,-1.4%,/
CCOC(=O)c1c(N)sc2c(O)c(Br)ccc12,?,/,/,0.2%,/
Cc1cccc(CNc2nc(-c3cccc(NS(C)(=O)=O)c3)nc3ccccc23)c1,?,1e-09,i,-2.4%,i
Cc1cnc(CNc2cc(-c3ccc(N(C)C)cc3)ncn2)cn1,7%,3.1e-08,i,2.2%,i
Nc1nc(COc2ccc3ccccc3c2)cs1,-2%,1e-09,i,-0.3%,i
O=C(NC(Cc1ccccc1)C(=O)N1CCN(c2ccccn2)CC1)c1ccco1 (stereo not drawn),11%,8.1e-09,i,-2.3%,i
Cc1cc(C)n2c(SCC(=O)Nc3cc(C)on3)nnc2n1,-1%,4.8e-08,i,-0.5%,i
CC(C)NS(=O)(=O)c1ccc(OCC(=O)Nc2ccc3c(c2)OCO3)c(Cl)c1,-15%,1e-09,i,0.0%,i

Shown with each value named: four of the compounds above.
> Cc1csc(NC(=O)Nc2ccc(Cl)cc2)n1
  TSHR ag: -2% | A647 autofl: 1e-09 | Resorufin autofl: i | AID923: -0.5% | A488 fluor: i
> O=C1CCC(=O)N1CNc1cccnc1
  TSHR ag: -11% | A647 autofl: / | Resorufin autofl: / | AID923: 0.0% | A488 fluor: /
> Cn1c(SCC(=O)c2ccc3c(c2)OCO3)nnc1C1COc2ccccc2O1 (stereo not drawn)
  TSHR ag: 9% | A647 autofl: 1.5e-09 | Resorufin autofl: i | AID923: 3.6% | A488 fluor: i
> CCc1ccc(N2CC(C(=O)Nc3nccs3)CC2=O)cc1 (stereo not drawn)
  TSHR ag: 5% | A647 autofl: 4.8e-09 | Resorufin autofl: i | AID923: -0.5% | A488 fluor: i

Additional records
mol,TSHR ag,A647 autofl,Resorufin autofl,AID923,A488 fluor
O=C(NCc1ccc2c(c1)OCO2)c1cc2c(s1)CSC2,10%,/,/,0.4%,/
Cn1c(=O)n(-c2ccccc2)c(=O)c2c3c(sc21)COC(C)(C)C3,0%,4.1e-08,i,-0.2%,i
COc1cc(C(=O)NCCc2nc3ccccc3n2C)cc(OC)c1OC,4%[11.4 µM],9.3e-09,i,0.3%,i
C[C@H](CCC(=O)O)[C@H]1CC[C@H]2[C@@H]3[C@H](O)C[C@@H]4C[C@H](O)CC[C@]4(C)[C@H]3C[C@H](O)[C@]12C,3%,/,/,-1.0%,/
COCCNS(=O)(=O)c1cccc2cccnc12,3%,/,/,0.0%,/
CCN(CC)S(=O)(=O)C1CCS(=O)(=O)C1 (stereo not drawn),22%,/,/,1.2%,/
CCC(c1nnnn1C1CCCCC1)N1CCN(C2CCCC2)CC1 (stereo not drawn),?,1e-09,i,1.0%,i
COc1ccc(S(=O)(=O)N2CCC(C(=O)Nc3nnc(CCN4CCCCC4)s3)CC2)cc1,-2%,4e-08,i,-2.7%,i
Cc1cc2oc(C(=O)N(Cc3ccco3)C3CCS(=O)(=O)C3)cc(=O)c2cc1Cl (stereo not drawn),4%,8.7e-09,i,-3.5%,i
O=S(=O)(NCCc1cn2ccccc2n1)c1cccs1,7%,/,/,4.5%,/
COc1cccc(N2CCN(C(=O)c3ccc(N4C(=O)NC5CC4(C)Oc4ccccc45)cc3)CC2)c1 (stereo not drawn),-5%,4.4e-09,i,0.0%,i
COC(=O)C1=C(CSc2nncn2C)NC(=O)NC1c1cc(C)ccc1C (stereo not drawn),-1%,1e-09,i,4.4%,i
CCC(C)OC(=O)c1[nH]c2c(c1C)C(=O)CC(c1ccc(N(C)C)cc1)C2 (stereo not drawn),-9%,/,/,3.3%,/
NC(=O)c1ccc(-n2nnnc2SCc2ccccc2)cc1,-2%,3.5e-08,i,-1.1%,i
Cc1cc(C(=O)OCC(=O)NC2CCS(=O)(=O)C2)c(C)n1-c1ccccc1 (stereo not drawn),19%,1e-09,i,-0.4%,i
CC(O)CNc1nc2c(c(=O)n(C)c(=O)n2C)n1C/C=C/c1ccccc1 (stereo not drawn),-4%,4.7e-09,i,2.4%,i
CCOC(=O)NCc1ccc(S(=O)(=O)Nc2ccccc2C)cc1,2%,2.8e-08,i,2.3%,i
CCc1cc2c(nc1CC)CCN(CC/C(C)=N/OC[C@@H](O)[C@@H]1O[C@@H]3OC(C)(C)O[C@@H]3[C@H]1O)C2,2%[11.4 µM],/,/,-3.2%[11.5 µM],/
O=C1N=c2ccccc2=C1c1sc(=S)n(CC2CCCO2)c1O (stereo not drawn),-26%,/,/,-1.3%,/
COc1cc(OC)c(NC(=O)CS(=O)(=O)Cc2nc(-c3ccc(C)cc3)oc2C)cc1Cl,1%,/,/,1.1%,/
